# D2 PAM: human D2 receptor positive allosteric modulation. P14416. DiscoveRx D2 beta-arrestin cells, luminescence, 90 min; 100% = 57 uM dopamine signal. potentiation, % (concentration not given with the values). actives 0.23% (n = 360,000). AID 624464; active = potentiation of 50% or more; inconclusive = 30% to 50%; inactive = 30% or less;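 also: compound concentration not given in the record; tested on top of an EC20 dose of dopamine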
#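 PathHunter beta-arrestin assay in DiscoveRx D2 cells. Compounds were added with an EC20 of dopamine (50 nM final) for 90 min at 37 deg C. Luminescence was read 1 h after detection reagent, with 57 uM dopamine as the EC100 control.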
# gsp agonist: gsp mutant agonism. gsp mutant cells, cAMP HTRF, 30 min; control for the full effect not named in the record. Potency, µM (top dose mostly 76.9 µM), for the others: at the top dose activation (cAMP increase), actives largely listed as activators. actives 0.13% (n = 340,000). AID 624287; active = well fitted activation curve with a large enough effect; inconclusive = small, poorly fitted or top-dose-only effect, or another doubt; inactive = no such curve, though single readings can be large or run the other way; cell line not stated here;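 also: phosphodiesterase inhibitor Ro 20-1724 added with compounds to block cAMP breakdown; potency is read from the fitted curve at half-maximal effect; nearly all actives have a fitted effect of over 60% in size; about a fifth of the inactives were tested at one dose only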
#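 Cells stably selected in G418 were plated at 2000/well, grown 16-24 hr, then given compounds in DMSO with the PDE inhibitor […] (300 uM solution added) for 30 min at 37C; cAMP was read by HTRF.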
# Six1-Eya2 inh: blocks human Six1 binding to Eya2. Q15475+O00167. AlphaScreen GST-Six1/His-Eya2 binding, biochemical; active compounds read low; control for the full effect not named in the record. activity change, % (no concentration beside the values). actives 0.56% (n = 360,000); in the data active = activity change below about -65%; inconclusive = about -30% to -65%; inactive = above about -30%; also: % is scaled to controls: 0 for no effect and ±100 for the full control effect
# Target sequence (O00167 whole entry, looked up): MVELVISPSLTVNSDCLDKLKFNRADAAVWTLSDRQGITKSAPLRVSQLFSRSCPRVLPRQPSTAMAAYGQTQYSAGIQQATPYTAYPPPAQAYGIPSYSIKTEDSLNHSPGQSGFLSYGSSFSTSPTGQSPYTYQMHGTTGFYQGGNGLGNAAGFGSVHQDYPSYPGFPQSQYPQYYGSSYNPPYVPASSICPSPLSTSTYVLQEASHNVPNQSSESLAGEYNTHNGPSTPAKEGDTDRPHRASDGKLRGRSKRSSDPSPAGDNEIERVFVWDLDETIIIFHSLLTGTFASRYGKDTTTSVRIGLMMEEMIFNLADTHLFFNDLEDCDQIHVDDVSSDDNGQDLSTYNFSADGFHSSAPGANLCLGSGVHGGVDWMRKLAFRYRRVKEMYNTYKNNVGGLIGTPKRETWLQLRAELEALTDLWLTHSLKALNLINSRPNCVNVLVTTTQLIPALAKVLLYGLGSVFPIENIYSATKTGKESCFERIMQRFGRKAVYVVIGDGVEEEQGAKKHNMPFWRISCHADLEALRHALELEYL
# Target sequence (Q15475 whole entry, looked up): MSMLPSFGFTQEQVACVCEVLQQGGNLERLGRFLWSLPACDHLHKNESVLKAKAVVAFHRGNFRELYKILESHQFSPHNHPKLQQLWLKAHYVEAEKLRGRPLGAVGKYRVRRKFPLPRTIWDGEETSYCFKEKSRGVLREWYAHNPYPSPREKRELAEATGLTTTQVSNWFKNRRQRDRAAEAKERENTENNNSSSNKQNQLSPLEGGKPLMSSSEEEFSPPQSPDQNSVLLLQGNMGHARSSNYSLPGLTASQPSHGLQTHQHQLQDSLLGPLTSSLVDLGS
#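 GST-Six1 + His-Eya2 (5X stock: 250/500 nM); Tris pH 8.0, 300 mM NaCl, 0.05% BSA, 0.02% Tween 20; GSH donor/Ni acceptor beads; 1 h 37 °C dark; AlphaScreen readout.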
# D2 agonist: agonists of human D2 dopamine receptor (beta-arrestin) | P14416 | AID 624465 | actives 0.084% (n = 360,000) | DiscoveRx PathHunter D2 beta-arrestin, luminescence, 90 min; 100% = 57 uM dopamine signal | activation, % (no concentration beside the values); in the data active = activation above about 40%; inconclusive = about 15% to 40%; inactive = below about 15%; also: compound concentration not given in the record; the text of the record calls up to 30% inactive
#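 DiscoveRx PathHunter D2 beta-arrestin cells (2,100/well) attached overnight, then compound-stimulated 90 min at 37 C in HBSS/10 mM HEPES/0.1% Tween-20 buffer; beta-galactosidase complementation read by luminescence after 1 h at ambient temperature. Dopamine 57 uM final (EC100) as control.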
# gsp antag: antagonists of gsp mutant (McCune-Albright syndrome) | Potency, µM (highest dose often 76.9 µM), inactives show top-dose activity change, negative = inhibition, usual class: inhibitors | actives 0.4% (n = 340,000) | gsp-mutant cells, cAMP HTRF, 30 min; control for the full effect not named in the record; active = falling curve of any shape with a large fitted effect; inconclusive = falling curve, mostly with a smaller effect; inactive = flat or rising curve; cell line not stated here;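 also: intracellular cAMP measured with PDE inhibitor Ro 20-1724 present during compound exposure; potency is read from the fitted curve at half-maximal effect; % is scaled to controls: 0 for no effect and ±100 for the full control effect; nearly all actives have a fitted effect of over 65% in size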
#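 HTRF cAMP measurement after 30 min RT detection following 30 min, 37C compound treatment alongside […] (added as 300 uM solution) in G418-selected cells seeded at 2000/well and grown 16–24 h.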
# CtBP-E1A inh: CtBP/E1A binding inhibition; actives 0.49% (n = 340,000); AlphaScreen GST-E1A/His-CtBP binding, 1536-well; active compounds read low; control for the full effect not named in the record; activity change, % (no concentration beside the values); AID 651724; in the data active means activity change below about -65%; inconclusive means about -30% to -65%; inactive means above about -30%; also: % is scaled to controls: 0 for no effect and ±100 for the full control effect
#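 In 5 uL wells, 23 nL compound meets equimolar GST-E1A and His-CtBP (5X stock 125 nM each) for 2 h, 37 °C. Beads (5X, 50 ug/mL) then 1 h, 37 °C, dark.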
# * hit, by the source's call; u = inconclusive; x = no result given; [ ] = another dose, or the depositor's remark. Outcome played no part in choosing rows (roughly 1.4% active in at least one column).
No.	structure	D2 PAM	gsp agonist	Six1-Eya2 inh
1	Clc1ccc(-c2noc(CN3CCOCC3)n2)cc1	-3	6%[15.4 µM]	-21
2	Cc1ccc(Cl)cc1NC(=O)CN1CCN(S(=O)(=O)N2CCC(C)CC2)CC1	-2	-1%[15.4 µM]	-9
3	CCCCNC(=O)Oc1cccc(N2CCCC2=O)c1	-34	-7%	2
4	Cc1c(C(=O)NNS(=O)(=O)c2ccccc2)sc(=S)n1C	-8	-93%[inhibitor]	-5
5	CC(C)N1CC(C(=O)Nc2ccc(C#N)cc2)CC1=O (stereo not drawn)	-2	-8%	3
6	CCCN(CCC)C(=O)Cn1c(=O)n(CCCCCC(=O)Nc2ccccc2)c(=O)c2sccc21	-13	18%	-7
7	Cc1ccc(-n2cc3c(-c4cccc(Br)c4)nnc(C)c3n2)cc1	-20	u	-10
8	c1ccc(-c2noc(CC3CCCCC3)n2)nc1	4	25%	-3

No.	D2 agonist	gsp antag	CtBP-E1A inh
1	0.7	9%	11
2	-0.8	-3%	9
3	-1.2	12%	2
4	-2.5	3%	-3
5	-4.2	-2%	-1
6	-1.0	21%	0
7	1.8	-21%	u
8	0.3	14%	x

# In another format: four of the compounds above
2) Cc1ccc(Cl)cc1NC(=O)CN1CCN(S(=O)(=O)N2CCC(C)CC2)CC1
  D2 PAM = -2
  gsp agonist = -1%[15.4 µM]
  Six1-Eya2 inh = -9
  D2 agonist = -0.8
  gsp antag = -3%
  CtBP-E1A inh = 9

3) CCCCNC(=O)Oc1cccc(N2CCCC2=O)c1
  D2 PAM = -34
  gsp agonist = -7%
  Six1-Eya2 inh = 2
  D2 agonist = -1.2
  gsp antag = 12%
  CtBP-E1A inh = 2

4) Cc1c(C(=O)NNS(=O)(=O)c2ccccc2)sc(=S)n1C
  D2 PAM = -8
  gsp agonist = -93%[inhibitor]
  Six1-Eya2 inh = -5
  D2 agonist = -2.5
  gsp antag = 3%
  CtBP-E1A inh = -3

5) CC(C)N1CC(C(=O)Nc2ccc(C#N)cc2)CC1=O (stereo not drawn)
  D2 PAM = -2
  gsp agonist = -8%
  Six1-Eya2 inh = 3
  D2 agonist = -4.2
  gsp antag = -2%
  CtBP-E1A inh = -1

# Further structures.
No.	structure	D2 PAM	gsp agonist	Six1-Eya2 inh
9	CCc1ccc(C(=O)COC(=O)CNC(=O)Cc2ccccc2)cc1	-7	-12%[15.4 µM]	16
10	Cc1ccc(S(=O)(=O)c2c(N)n(CCCO)c3nc4ccccc4nc23)cc1	0	u	u
11	Cc1cccc(/C(N)=N/OC(=O)c2ccc(Cl)cc2Cl)c1	16	-18%[15.4 µM]	2
12	Cn1c(=O)[nH]c(=O)c2c1nc(SCC(=O)O)n2CCOc1ccccc1	0	u	7
13	Cc1ccc(C)c(S(=O)(=O)N2CCN(Cc3ccc(O)c4ncccc34)CC2)c1	-12	0%	-79*
14	CCN(CC)CCCNC(=O)C1c2ccccc2C(=O)N1Cc1ccc(C)cc1 (stereo not drawn)	-4	1%	5
15	O=C(Nc1ccccc1)C1C2CCCCC21 (stereo not drawn)	-25	-9%[15.4 µM]	21
16	COc1ccc(NC(=O)Cn2cc(S(=O)(=O)Cc3ccccc3)c3ccccc32)c(OC)c1	-4	11%[15.4 µM]	2

No.	D2 agonist	gsp antag	CtBP-E1A inh
9	-5.1	6%	6
10	-3.2	-15%	u
11	6.6	14%	-9
12	-0.6	10%	8
13	7.9	-11%	-86*
14	-1.8	14%	7
15	-6.1	-15%	8
16	-0.3	-21%	7

# More results
No.	structure	D2 PAM	gsp agonist	Six1-Eya2 inh
17	Cc1ccc(C(=O)CCC(=O)N2CCN(c3ccccc3O)CC2)cc1	1	-21%[15.4 µM]	-4
18	COc1ccc(N2CCN(S(=O)(=O)CCNC(=O)COc3ccccc3C)CC2)cc1	-5	4%[15.4 µM]	-14
19	Cn1c(=O)cc(OCC(=O)NCCCN2CCN(Cc3ccccc3)CC2)c2ccccc21	-10	-19%	-7
20	NC(=O)C1CCN(C(=O)CN2CCN(c3cccc(C(F)(F)F)c3)CC2)CC1	-17	-1%	0
21	OCCN1CCN(CCCc2c3c(cc4c2CCC4)CCC3)CC1	-15	12%	-3
22	COc1cccc(NC(=O)CN(C)C(=O)CCNC(=O)c2ccccc2OC)c1	1	1%[15.4 µM]	2
23	O=C(NCc1ccccc1)C1Cc2ccccc2CN1C(=O)c1ccco1 (stereo not drawn)	3	u	2
24	COC(=O)c1ccc(C(=O)OC)c(NC(=O)Nc2ccc3c(c2)OCO3)c1	-1	-9%	6

No.	D2 agonist	gsp antag	CtBP-E1A inh
17	-1.5	3%	7
18	-2.6	2%	5
19	-2.7	1%	-2
20	-0.9	8%	3
21	-5.6	15%	1
22	-3.0	5%	-9
23	-6.6	3%	-4
24	1.3	8%	0

# The results go on:
No.	structure	D2 PAM	gsp agonist	Six1-Eya2 inh
25	COc1cccc(C(=O)CSc2nnc(-c3cc(OC)c(OC)c(OC)c3)o2)c1	-10	2%	0
26	O=C(CNC(=O)c1ccc(Cl)cc1)OCC(=O)c1ccccc1	-19	12%[15.4 µM]	4
27	COc1ccc(C)cc1NC(=S)N1CCN(c2ccccn2)CC1	0	0%	11
28	Cc1nc2nc(CCNS(=O)(=O)c3ccc(Cl)cc3)cn2nc1C	5	24%	0
29	CC1(CCl)N([O-])C2=C(CCCC2)[N+]1=O (stereo not drawn)	0	-1%	8
30	CCN(CC)c1ccc(CNc2ccc(Br)cn2)cc1	3	18%	u
31	CCOC(=O)CNC(=O)CSc1nnc(-c2ccncc2)n1-c1ccc(Cl)cc1	-3	27%	4
32	N#Cc1ccc(OCC(=O)OCC(=O)Nc2sccc2C(N)=O)cc1	2	-15%	7

No.	D2 agonist	gsp antag	CtBP-E1A inh
25	-0.1	16%	-1
26	-4.9	2%	3
27	-1.3	12%	0
28	-12	8%	7
29	-2.5	5%	-7
30	-1.9	3%	u
31	-0.4	-6%	4
32	9.0	-9%	6

# (list continues)
No.	structure	D2 PAM	gsp agonist	Six1-Eya2 inh
33	CN1CCN(/N=C2/C(=O)Nc3ccc([N+](=O)[O-])cc32)CC1	-21	-6%	-23
34	CC1CCN(S(=O)(=O)CCNC(=O)c2ccc3c(c2)OCO3)CC1	-5	-4%[15.4 µM]	6
35	O=C(Nc1ccccc1C(=O)N1CCCC1)C1COc2ccccc2O1 (stereo not drawn)	-4	-1%[15.4 µM]	1
36	Nc1nc(SCC(=O)Nc2ccc([N+](=O)[O-])cc2)[nH]c(=O)c1NC(=O)c1ccc(Br)cc1	-9	29%	-6
37	CCOC(=O)C1CCCN(C(=O)c2ccc(C)c([N+](=O)[O-])c2)C1 (stereo not drawn)	-25	-36%	-6
38	Cc1cc(NC(=O)C2CCCCC2)n(-c2nc3ccccc3[nH]2)n1	-3	15%	2
39	COc1cccc(-c2nn(-c3ccccc3)cc2C(=O)Nc2nccs2)c1	-32	-3%	-10
40	Cc1ccc(S(=O)(=O)NCc2ccccc2)cc1C(=O)N(C)CC(=O)Nc1c(Cl)cccc1Cl	9	-1%	-3

No.	D2 agonist	gsp antag	CtBP-E1A inh
33	-8.8	-8%	x
34	-3.9	11%	3
35	-1.8	14%	-2
36	-4.7	6%	-20
37	-1.0	10%	3
38	-6.7	-1%	1
39	-0.5	-13%	-9
40	-1.1	-9%	0

# More results
No.	structure	D2 PAM	gsp agonist	Six1-Eya2 inh
41	Cc1cc(C)n2nc(SCC(=O)c3ccccc3)nc2n1	-4	-4%	-1
42	CCN(CC(=O)Nc1c(F)cccc1F)C(=O)c1ccc(=O)n(Cc2ccccc2)n1	-33	0%[15.4 µM]	7
43	CSc1ccccc1NC(=O)CN(C)CC(=O)Nc1cccc(Br)c1	-2	11%	-1
44	Cc1ccc2c(c1)-c1cc(C)ccc1C2=O	-10	20%	6
45	CCOc1ccc(S(=O)(=O)Nc2cccc(C(=O)N(C)CC(=O)Nc3cccc(OC)c3)c2)cc1	-8	-52%[inhibitor]	3
46	CC(C)(C)OC(=O)N1CCC(C(=O)Nc2ccc(C(=O)N3CCCC3)cc2)CC1	x	x	7
47	COC(=O)[C@H](CCSC)NC(=O)NCc1cccs1	-11	-1%	-2
48	O=C(CC1CCCC1)NCCS(=O)(=O)N1CCN(c2ccccc2F)CC1	-11	-8%[15.4 µM]	-9

No.	D2 agonist	gsp antag	CtBP-E1A inh
41	-1.2	2%	13
42	-8.7	-3%	2
43	2.2	u	-1
44	1.2	-21%	27
45	-1.3	-2%	-12
46	0.8	9%	2
47	-0.8	-1%	1
48	-6.9	11%	2

# Next part:
No.	structure	D2 PAM	gsp agonist	Six1-Eya2 inh
49	C[C@H](NC(=O)OCc1ccccc1)c1nnc([C@H](Cc2ccccc2)NC(=O)OC(C)(C)C)o1	-5	x	12
50	O=C(c1cc2ccccc2oc1=O)N(c1ccccc1)C1C=CS(=O)(=O)C1 (stereo not drawn)	1	u	4
51	O=c1cc(-c2ccc(Cl)cc2)nc(N2CCN(c3ccccc3)CC2)[nH]1	1	-1%	2
52	CCOc1ccc(-c2nc(S(=O)(=O)c3ccccc3)c(N3CCC(C(N)=O)CC3)o2)cc1	0	u	9
53	CC(C)Cc1nnc(NC(=O)CN2C(=O)C3CCCCC3C2=O)s1 (stereo not drawn)	7	-66%[inhibitor]	-2
54	CCN(CC)S(=O)(=O)c1ccc(O)c(NC(=O)COc2ccc(S(=O)(=O)N3CCOCC3)cc2)c1	-9	u	u
55	CCCCn1c(N)c(N(CCOC)C(=O)c2c(-c3ccccc3)noc2C)c(=O)[nH]c1=O	-2	-2%[15.4 µM]	-10
56	CC(NC(=O)CSc1n[nH]c(N)n1)c1ccccc1 (stereo not drawn)	-5	13%	0

No.	D2 agonist	gsp antag	CtBP-E1A inh
49	0.2	-8%	6
50	3.4	9%	3
51	4.0	-13%	8
52	-1.8	-9%	1
53	-2.9	11%	13
54	1.6	u	-15
55	-3.4	7%	2
56	-3.5	6%	5

# (next part)
No.	structure	D2 PAM	gsp agonist	Six1-Eya2 inh
57	CCC1(C)N([O-])C(C)=C(c2ccccc2)[N+]1=O (stereo not drawn)	-8	16%	7
58	N#Cc1ccsc1NC(=O)CN1C(=O)NC2(CCCCC2)C1=O	-13	0%	0
59	c1ccc(N2CCN(c3ncccn3)CC2)cc1	11	-16%	1
60	Cc1cccc(NC(=O)CSc2nnc(-c3n[nH]c4ccccc34)o2)c1	0	-23%	-13
61	Fc1cccc(Cc2c(-c3ccco3)nc3c4ccccc4ccn23)c1	-8	x	u
62	CN(CC(=O)Nc1ccc(Cl)c(C(F)(F)F)c1)C(=O)COc1cccc2cccnc12	-12	9%	13
63	CN=C(Nc1ccc(C)c(C)c1)SC1CC(=O)N(c2ccc(OC)cc2)C1=O (stereo not drawn)	-8	-8%	6
64	COc1ccc(CC(=O)Nc2ccc(-c3noc(-c4cccc(OC)c4)n3)cc2)cc1	15	30%	9

No.	D2 agonist	gsp antag	CtBP-E1A inh
57	0.4	12%	13
58	-1.1	-1%	-5
59	-1.0	-1%[15.4 µM]	-2
60	-2.4	-14%	2
61	-3.9	x	u
62	-4.4	x	-22
63	-0.3	u	x
64	-3.6	5%	-8

# Source: PubChem BioAssay
